Mtb growth = Mycobacterium tuberculosis H37Rv growth inhibition, cell based, confirmatory dose response (AID 1949); M. tuberculosis H37Rv growth inhibition; most inactive calls were filed without a number and no value below 0 was filed; actives 1.6% (n = 100,000); inhibition, % at 10 µg/mL; hits with a dose series show IC50 in µg/mL;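 active means confirmed in a dose series; inconclusive means about 50% or more but not retested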;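 further: bacteria grown 7 days with compound before Alamar blue readout; 0% = untreated bacteria and 100% = reference antibiotic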
An asterisk follows results filed as active; i = inactive; ? = inconclusive.

SMILES | Mtb growth
CCOC(=O)c1ccc(N=CC2=C(O)CC(c3ccc(OC)cc3)CC2=O)cc1 (stereo not given) | 44%
O=C(CSc1nnnn1-c1ccc(C(=O)O)cc1)NC1CC1 | i
Cc1ccc(S(=O)(=O)/N=C(/c2ccc(F)cc2)N2CCOCC2)cc1 | i
O=C(COc1ccc(F)cc1)Oc1ccc(Br)cc1 | i
Cc1ccc(S(=O)(=O)N(C)CC(=O)Nc2ccncc2)cc1 | i
COc1ccc(CCN2C(=O)C3C4C=CC(O4)C3C2=O)cc1OC (stereo not given) | i
O=C(NC(=S)Nc1ccc(C(=O)N2CCOCC2)cc1)c1ccc(F)cc1 | i
COC(=O)C1=CN(Cc2ccc(Cl)cc2)C=C(C(=O)OC)C1c1ccc(O)cc1 | i
CC1CCCCN1Cc1c(O)ccc2c(=O)c(-c3ccc(Cl)cc3)coc12 (stereo not given) | i
Cc1cccc(OCCCC(=O)Nc2ccc(OC(C)C)cc2)c1 | 6%
Cc1cc(OCCOCCN2CCOCC2)cc(C(C)C)c1 | i
COc1ccc(OC)c(N(CC(=O)Nc2cccc3ccccc23)S(=O)(=O)c2ccc(OC)c(OC)c2)c1 | i
CCC(=O)Nc1ccc2nc(SC(C)C(=O)Nc3c(C)cc(C)cc3C)sc2c1 (stereo not given) | i
CCC(=O)Nc1cc2c(cc1C(=O)c1ccc(Cl)cc1)OCCO2 | 12%
CC(C)C(C(=O)Nc1ccc(S(N)(=O)=O)cc1)N1C(=O)c2ccccc2C1=O (stereo not given) | i
CC(=O)N(Cc1cc2cc(C)ccc2[nH]c1=O)c1ccc(C)c(C)c1 | i
CCCn1c(CCC(=O)O)ccc1-c1ccc(OC)cc1 | i
COc1ccc(OC)c(N(CC(=O)Nc2ccccc2C(=O)NCc2ccco2)S(=O)(=O)c2ccccc2)c1 | i
Cc1ccc(SCC(=O)Nc2ccc(C)c([N+](=O)[O-])c2)cc1 | 2.2µg/mL*
O=C(NC(=S)N(Cc1ccccc1)Cc1ccccc1)c1ccccc1F | ?
C=CCn1c(CC(=O)Nc2cccc(OC)c2)nnc1SCC(=O)Nc1nc2ccccc2s1 | i
COc1cc2c(cc1OC)C(c1ccccc1)N(C(=O)c1ccco1)CC2 (stereo not given) | i
Cc1ccccc1OCC(=O)Nc1ccc(CSc2ccccc2)cc1 | 4%
CC(Nc1nc(N2CCCCC2)nc2ccccc12)c1ccccc1 (stereo not given) | 2.3µg/mL*
CCOC(=O)c1ccc(Nc2nnc(CSc3nc(C)cc(C)n3)s2)cc1 | i
COc1ccccc1NC(=O)c1ccccc1NC(=O)c1cccs1 | i
CCOC(=O)c1ccc(NC(=O)CC2NCCNC2=O)cc1 (stereo not given) | i
CCc1nc2ccccc2n1CC(O)COc1cc(OC)cc(OC)c1 (stereo not given) | i
CCOc1ccc(NC(=O)C(C)n2nc(C)c([N+](=O)[O-])c2C)cc1 (stereo not given) | i
CCOC(=O)c1oc2c(C)c(O)ccc2c(=O)c1-c1nncn1-c1ccccc1 | i
CC(C)(C)c1ccc(S(=O)(=O)CCc2ccncc2)cc1 | i
CC(=O)c1ccc(NC(=O)CSc2ccccc2C(=O)O)cc1 | i
Cc1ccc(NC(=O)CN(C2CCCCC2)S(=O)(=O)c2ccccc2)cc1C | i
CCCC(=O)NCc1nc2ccccc2[nH]1 | i
O=C(CCc1ccccc1)Nc1ccc(-c2nc3ccccc3o2)c(O)c1 | i
CCCN(CCC)CC(=O)c1cc(C(C)(C)C)c(O)c(C(C)(C)C)c1 | 0%
CC1(C)CC(=O)C2=C(C1)NC1=C(C(=O)CC(C)(C)C1)C2c1ccc(I)cc1 | i
CCOC(=O)c1c(-c2ccc(Br)cc2)csc1NC(=O)C1CC1 | 14%
CCn1ccc(C(=O)Nc2ccc(C(F)(F)F)cc2Cl)n1 | 6%
COc1ccc2nc(Nc3ncc(C(C)=O)c(C)n3)nc(C)c2c1 | 4%
Oc1ccc(-c2csc(NCc3ccccc3)n2)cc1O | i
COC(=O)NC1CCC(NC(=O)OC)CC1 (stereo not given) | i
O=C(NCc1n[nH]c(=O)c2ccccc12)c1cc2ccccc2oc1=O | i
CC1=CCC(C(=O)O)C(C(=O)Nc2cccc(Cl)c2C)C1 (stereo not given) | i
COc1cc(OC)c(C(=O)NCc2ccccn2)cc1OC | i
O=[N+]([O-])c1ccc(Cn2cc(Cl)cn2)cc1 | i
O=C(NCc1ccccc1)c1cc2c(ccc3ccccc32)oc1=O | i
COc1ccc(NC(=S)N2CCN(c3ccccc3F)CC2)cc1 | i
CCOc1ccc(NC(=O)CN(c2ccccc2F)S(=O)(=O)c2ccc(C)cc2)cc1 | i
COc1ccc(OCC(=O)NC(c2ccccc2)c2ccccc2)cc1 | 2%
New compounds follow:
SMILES | Mtb growth
FC(F)(F)c1cc(C2CC2)nc2oc(OCc3ccccc3)nc12 | 4%
Fc1ccccc1OCCCOc1ncnc2ccccc12 | i
Cc1cc2nc(C(C)(C)C)cc(C(F)(F)F)n2n1 | i
CC(=O)c1c(C)nc(-c2ccc(Cl)c(Cl)c2)n1O | 17µg/mL*
C=C(C)Cn1c(SCC(=O)NCc2ccco2)nc2sc3c(c2c1=O)CCC3 | i
O=c1ccc2cc(S(=O)(=O)NCc3ccccc3)ccc2o1 | i
COc1ccc(S(=O)(=O)N2CCCc3ccccc32)cc1C | 4%
COc1ccc2oc(=O)c(C(=O)Oc3ccc(F)cc3)cc2c1 | ?
COC(=O)c1c(-c2ccc(Br)cc2)csc1NC(=O)C1CC=CCC1C(=O)O (stereo not given) | 0%
CCN1CCN(C(=O)C2CCN(S(C)(=O)=O)CC2)CC1 | i

Overlap with the part before: five compounds, then new ones.
SMILES | Mtb growth
O=c1ccc2cc(S(=O)(=O)NCc3ccccc3)ccc2o1 | i
COc1ccc(S(=O)(=O)N2CCCc3ccccc32)cc1C | 4%
COc1ccc2oc(=O)c(C(=O)Oc3ccc(F)cc3)cc2c1 | ?
COC(=O)c1c(-c2ccc(Br)cc2)csc1NC(=O)C1CC=CCC1C(=O)O (stereo not given) | 0%
CCN1CCN(C(=O)C2CCN(S(C)(=O)=O)CC2)CC1 | i
CCC(NS(=O)(=O)c1ccc(C)cc1)C(=O)N1CCCCC1 (stereo not given) | i
CN(C)S(=O)(=O)N(CC(=O)N1CCCC1)c1ccccc1 | i
Cc1ccc2nc(N3CCOCC3)c(C=O)cc2c1 | i
CCOC(=O)C1=C(C)NC(=S)NC1c1cc(Br)c(O)c(OC)c1 (stereo not given) | 3%
CCNc1cc(N2CCCC2)ccc1[N+](=O)[O-] | i
CC(=O)c1c(C)nc(-c2cccc([N+](=O)[O-])c2)n1O | 18%
Cc1cc(C)nc(Sc2ccc([N+](=O)[O-])cn2)n1 | 0%
CC(=O)c1cccc(NC(=O)Nc2ccc(OC(F)F)c(Cl)c2)c1 | 3%
Cc1ccc(NC(=O)COc2ccc([N+](=O)[O-])c(C)c2)cc1Cl | i
NC(=O)C1(N2CCCCC2)CCN(C(=O)NC23CC4CC(CC(C4)C2)C3)CC1 | i

7 of these compounds in another layout:
smiles	Mtb growth
CC(=O)c1c(C)nc(-c2cccc([N+](=O)[O-])c2)n1O	18%
Cc1ccc(NC(=O)COc2ccc([N+](=O)[O-])c(C)c2)cc1Cl	i
CCOC(=O)C1=C(C)NC(=S)NC1c1cc(Br)c(O)c(OC)c1 (stereo not given)	3%
NC(=O)C1(N2CCCCC2)CCN(C(=O)NC23CC4CC(CC(C4)C2)C3)CC1	i
CCC(NS(=O)(=O)c1ccc(C)cc1)C(=O)N1CCCCC1 (stereo not given)	i
Cc1cc(C)nc(Sc2ccc([N+](=O)[O-])cn2)n1	0%
CN(C)S(=O)(=O)N(CC(=O)N1CCCC1)c1ccccc1	i

4 entries from above, with each value named:
> CN(C)S(=O)(=O)N(CC(=O)N1CCCC1)c1ccccc1
  Mtb growth = i
> CC(=O)c1c(C)nc(-c2cccc([N+](=O)[O-])c2)n1O
  Mtb growth = 18%
> CCNc1cc(N2CCCC2)ccc1[N+](=O)[O-]
  Mtb growth = i
> Cc1ccc(NC(=O)COc2ccc([N+](=O)[O-])c(C)c2)cc1Cl
  Mtb growth = i

Continuation.
SMILES | Mtb growth
COc1ccc(N(CC(=O)Nc2ccc(Cl)c(C(F)(F)F)c2)S(C)(=O)=O)cc1Cl | ?
COc1ccc(-c2csc(NC(=S)NC(=O)c3ccc(C)cc3C)n2)cc1 | 2%
CCc1c(C)nc(SCc2ccc([N+](=O)[O-])cc2)c(C#N)c1C | i
COc1ccc(OC)c(NC(=S)N2CCc3ccccc3C2)c1 | i
CCCOc1ccc(C2Oc3ccc(Br)cc3C=C2[N+](=O)[O-])cc1OC (stereo not given) | 1.5µg/mL*
CCC(c1ccccc1)c1nc(-c2ccc(C)cc2)no1 (stereo not given) | i
O=C(CCN1C(=O)C2C3C=CC(C3)C2C1=O)Nc1ccc(Cl)c(Cl)c1 (stereo not given) | i
COC(=O)c1ccc(C(=O)OC)c(NC(=O)c2cc3c(n(-c4ccccc4)c2=O)CCCC3=O)c1 | i
Cc1cc(-c2ccc(NC(=O)C3CCCCC3)c(C)c2)ccc1NC(=O)C1CCCCC1 | i
Cc1ccnc(NC(=O)c2ccoc2C)c1 | 3%
Cc1cc(C)cc(C(=O)NC(C)C23CC4CC(CC(C4)C2)C3)c1 (stereo not given) | i
CC(=O)c1cccc(NC(=S)NC(=O)c2ccccc2F)c1 | i
CCOC(=O)c1ccc(NC(=O)CC2NC3CCCCC3NC2=O)cc1 (stereo not given) | i
COc1ccc(-c2csc(NC(=S)NC(=O)c3ccc(F)cc3)n2)cc1 | i
COc1ccc(CCNC(=O)c2cc3ccccc3oc2=O)cc1OC | i
CCCCC(=O)NC(c1ccccc1Cl)c1cc([N+](=O)[O-])c2cccnc2c1O (stereo not given) | i
O=C(Nc1cccc(F)c1)C1CCN(C(=O)c2ccc(Cl)cc2Cl)CC1 | 1%
NC(=O)C1(N2CCCCC2)CCN(C(=S)Nc2ccc(S(N)(=O)=O)cc2)CC1 | i
CCN(CC)C(=O)c1sc(NC(=S)N2CCN(Cc3cnn(CC)c3C)CC2)c(C(=O)OC)c1C | i
N#C/C(=C\c1cn[nH]c1-c1ccccc1)c1nc(-c2ccco2)cs1 | i
CCOC(=O)c1sc(NC(=O)c2ccc(C)cc2Cl)nc1C | 1%
Cc1c(C)c2cc(Cl)c(OC(=O)c3ccc(Cl)cc3Cl)cc2oc1=O | i
CC1CN(C(=S)NC(=O)c2ccccc2F)CC(C)O1 (stereo not given) | i
Cc1ccc(CN(C(=O)Nc2ccccc2)C2CCS(=O)(=O)C2)o1 (stereo not given) | 3%
COc1cccc(S(=O)(=O)NCc2ccc(C(=O)Nc3ccc(Cl)cc3)cc2)c1 | i
CC(C)(C)C(=O)NC(=S)Nc1sc2c(c1C(N)=O)CCC2 | i
CS(=O)(=O)N(CC(=O)Nc1cccc(C(F)(F)F)c1)c1ccc(Br)cc1 | ?
O=C(Cc1c(F)cccc1Cl)N1CCc2ccccc21 | i
CCS(=O)(=O)NCc1ccc2c(c1)OCO2 | i
O=C(Nc1cccc([N+](=O)[O-])c1)N1CCN(Cc2ccc(Cl)cc2Cl)CC1 | 5.1µg/mL*
O=C(OCc1nnc(-c2ccccc2)o1)C1CC(=O)N(c2ccccc2)C1 (stereo not given) | i
CCOc1cc(C=O)ccc1OCCOc1ccc(C)cc1 | i
COC(=O)c1ccc(C)c(NC(=O)C(C)Sc2ccc(C)cc2)c1 (stereo not given) | 3%
C=CCOc1c(Cl)cc(CNc2nn[nH]n2)cc1OC | 11%
CC1(C)C(=O)OC(c2ccccc2[N+](=O)[O-])C2(CCCCC2)C1=O (stereo not given) | i
Cn1ccnc1Sc1cc(N2CCCC2)ccc1[N+](=O)[O-] | 6%
CC(C)(C)c1ccc(OCC(=O)N2CCN(c3ccccc3)CC2)c(Br)c1 | 8%
CCOC(=O)N1CCN(C(=O)CN(c2ccc(OC)c(Cl)c2)S(=O)(=O)c2ccccc2)CC1 | i
O=C(c1cc2ccccc2oc1=O)N(Cc1ccccc1)C1CCS(=O)(=O)C1 (stereo not given) | i
Cc1ccc(F)c(NC(=O)c2ccc(F)cc2)c1 | i
COc1ccc(Cl)cc1NC(=O)n1cc(C)cn1 | 0%
COc1cc(C=O)c(Br)cc1OCC(N)=O | i
Cc1ccccc1Nc1nnc(C)c(=O)[nH]1 | 0%
CCN(CC)Cc1ccc(NC(=O)c2ccccc2C)cc1 | i
Cc1ccc(N(CC(=O)Nc2cccc(Cl)c2Cl)S(=O)(=O)c2ccc(F)cc2)cc1 | 16%
Cc1cc(=O)oc2cc(NC(=S)NNC(=O)OC(C)(C)C)ccc12 | i
COc1ccc(Cl)cc1NC(=S)NN1CCOCC1 | i
Cc1cc(=O)oc2cc(NC(=S)NNC(=O)C(C)Oc3ccc4c(c3)CCC4)ccc12 (stereo not given) | i
CCOC(=O)c1sc(NC(=S)NCc2cccs2)c(C(=O)OCC)c1C | i
CCn1c(SCC(=O)Nc2ccc(F)c(Cl)c2)nnc1C(NC(=O)c1ccccc1)C(C)C (stereo not given) | i
Further compounds
SMILES | Mtb growth
Cc1cc(Br)ccc1OCCN1CCC(C)CC1 | i
COC(=O)c1c(-c2ccc(C(C)C)cc2)csc1NC(=O)C(C)C | 25%
CCOC(=O)c1ccc(NC(=O)COc2ccc(S(=O)(=O)NC(C)CC)cc2)cc1 (stereo not given) | i
O=c1c(C(c2ccccc2)c2ccccc2)c(O)nc2n1CCS2 | i
O=C(Nc1nc2c(s1)CCCC2)C1COc2ccccc2O1 (stereo not given) | i
CCOC(=O)c1ccc(Nc2nc(C)cc(C)c2C#N)cc1 | i
O=C(O)C1CC=CCC1C(=O)Nc1cccc(C(=O)N2CCCCC2)c1 (stereo not given) | i
CCOC(=O)c1c(NC(=O)c2ccc(F)cc2)sc(C(=O)Nc2cc(C(F)(F)F)ccc2Cl)c1C | i
COC(=O)c1ccccc1NC(=O)Nc1ccc(Cl)cn1 | i
CCOC(=O)c1c(-c2cccs2)csc1NC(=O)CSc1ncn[nH]1 | 11%
Cc1cc(N2Cc3ccccc3C2)ccc1C=O | i

Bioassay records deposited in PubChem BioAssay by Southern Research Institute.

These rows are one share of the data; count on the stated rates, not on these rows.
